# Vif A3G = inhibitors of Vif binding to APOBEC3G peptide, primary screen, biochemical, TR-FRET, GST-Vif 1-94, biotin-A3G peptide, dose response retest (AID 1117319); TR-FRET GST-Vif / biotin-A3G peptide binding; higher % means a stronger effect; test concentration not given here; strong numbers were not always called active; one-dose inhibition, %; IC50 in µM for titrated hits; actives 0.57% (n = 260,000);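 active = above the screen mean plus three standard deviations and confirmed in dose response; inconclusive = results disagree or hit not tested in dose response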;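 note: Vif residues 1-94 fused to GST binding biotinylated APOBEC3G peptide 110-148; 0% = full assay without inhibitor and 100% = GST in place of GST-Vif; retest series ran down from 100 µM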
# HNF4A DNA FP = change in binding of human HNF4 alpha to DNA | HNF4a-FITC DNA binding, fluorescence polarization, 1 h | activity change, % at 10 µM | actives 0.3% (n = 360,000); in the data active = activity change above about 30%, passing the limit was not always enough;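 note: controls were the assay level and a saturating level of protein; the project sought stronger binding though the title names inhibitors; some compounds called inactive have numbers as strong as hits; positive values seem to mean higher polarization but the record does not say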
# RanGTP-Impb inh = disruptors of Ran-importin-beta complex formation – biochemical, FRET, CFP-Ran, YFP-importin-beta, homogeneous, primary screen; actives 1.1% (n = 300,000); AID 2216; cell-free CFP-Ran/YFP-importin-beta FRET ratio; inhibition, % (concentration not given with the values);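 active = most replicates above 15%; inconclusive = exactly half above 15%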;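 note: 0% = DMSO wells and 100% = Ran loaded with GDP instead of GTP; wells of about 40 µL received 100 nL stock; the first replicate is given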
# Beta2AR agonist = human beta-2 adrenergic receptor agonism by FAP; actives 0.43% (n = 340,000); Am2.2-beta2AR cells, FAP receptor internalization, flow cytometry; reference of the scale not given here; response, % (concentration not given with the values); AID 504454; P07550;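 active = response above a set limit, near 3 SD of response in nonfluorescent compounds, cut at about 42% in these data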;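 note: stock transfer was 100 nL into about 11 µL; a reference agonist was the positive control; negative values mostly stem from fluorescent compounds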
# Target sequence (P07550 whole entry, looked up): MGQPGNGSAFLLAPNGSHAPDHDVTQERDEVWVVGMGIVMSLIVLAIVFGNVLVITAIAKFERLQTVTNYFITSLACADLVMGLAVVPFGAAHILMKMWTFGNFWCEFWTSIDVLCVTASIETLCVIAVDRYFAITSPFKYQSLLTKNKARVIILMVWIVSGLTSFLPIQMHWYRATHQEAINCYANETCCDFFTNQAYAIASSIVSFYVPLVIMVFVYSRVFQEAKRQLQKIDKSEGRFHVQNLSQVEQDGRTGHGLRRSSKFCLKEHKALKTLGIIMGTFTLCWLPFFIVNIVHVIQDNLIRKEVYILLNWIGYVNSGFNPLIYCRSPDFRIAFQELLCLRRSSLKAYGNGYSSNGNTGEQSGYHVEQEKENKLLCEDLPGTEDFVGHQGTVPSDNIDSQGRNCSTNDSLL
# LANA-H2A inh = blocks KSHV LANA binding to histone H2A/H2B | Q9QR71 | cell-free LANA-H2A/H2B peptide, fluorescence polarization | inhibition, % (test concentration not listed) | actives 0.6% (n = 320,000) | AID 2629; in the data active = inhibition mostly above about 10%, no sharp cut-off; inactive = mostly below about 6.7%;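 note: stock transfer was 7.5 nL into about 10 µL; 0% = median of vehicle wells and 100% = median of positive control wells; one replicate is shown; the record names a cut of 25% in any replicate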
# ALR H2O2 inh = human ALR oxidase inhibition via reduced H2O2; P55789; purified ALR, DTT oxidation, H2O2 HRP-luminol luminescence; inhibition, % (no concentration beside the values); actives 3.8% (n = 290,000); AID 485317;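 active = mean and each replicate at 75% or more; inconclusive = only one of the two met; inactive = neither met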;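 note: stock transfer was 7.5 nL into about 7.5 µL; 0% = neutral wells and 100% = wells with inactivated enzyme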
# Target sequence (P55789 whole entry, looked up): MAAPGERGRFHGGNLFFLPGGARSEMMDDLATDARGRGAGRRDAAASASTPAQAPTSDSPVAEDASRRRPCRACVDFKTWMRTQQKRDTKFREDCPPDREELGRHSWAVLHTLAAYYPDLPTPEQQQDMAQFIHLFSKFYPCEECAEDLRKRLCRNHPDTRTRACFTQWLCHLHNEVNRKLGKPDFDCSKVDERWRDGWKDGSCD
# Calb FLC = C. albicans growth modulation with fluconazole; actives 0.57% (n = 300,000); C. albicans CaCi-2 (fluconazole-resistant clinical isolate) + fluconazole, Alamar Blue growth, 48 h; growth inhibition, % (concentration not given with the values);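 active = most replicates above 75%; inconclusive = exactly half above 75%; inactive = most below 75%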;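 note: all wells also contain fluconazole at 8 µg/ml as a sub-toxic cotreatment; 0% = median of DMSO wells and 100% = median of geldanamycin control wells; wells of about 8 µL received 7.5 nL stock; the first replicate is given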
# Active calls of the source: *; ? = inconclusive; / = not tested or not shown. The order is random, and some 6.3% of all compounds hit somewhere here.
smiles	Calb FLC	ALR H2O2 inh	Vif A3G	LANA-H2A inh	HNF4A DNA FP	Beta2AR agonist	RanGTP-Impb inh
CCn1c(Cc2ccccc2)nnc1SCC(=O)Nc1nnc(-c2ccccc2)s1	-9	-1	5%	-8.7	-0.1	-8	-2.2
COc1ccccc1CNC(=O)Cc1c[nH]c2ccccc12	0	0	/	-4.7	1.3	8	2.4
CCOC(=O)C1(Cc2cccc(OC)c2)CCN(C/C=C/c2ccccc2)CC1	5	-11	3%	2.2	-5.5	-3	7.8
NC(=O)c1nn(CC(=O)Nc2ccc3c(c2)OCO3)cc1[N+](=O)[O-]	/	/	-2%	-2.5	4.2	0	/
CCc1nn(C(CC)C(=O)NCc2cccc(OC)c2OC)c(=O)c2cc3occc3n12 (stereo not given)	2	2	2%	0.8	2.1	-2	?
O=C(COC(=O)c1cc[n+]([O-])cc1)Nc1cc([N+](=O)[O-])ccc1Cl	-2	-7	2%	1.0	0.2	1	0.4
O=C1NC(=Nc2ccccc2)SC1(CO)CO	5	0	/	2.3	1.3	0	-1.9
CC(CN(C)Cc1nc(Cc2cccc(C(F)(F)F)c2)no1)CN1CCCC1 (stereo not given)	-8	-24	0%	-1.1	-4.7	-10	2.4
CN1CCN(c2nc(Nc3ccc(F)cc3)nc(Nc3ccc(F)cc3)n2)CC1	20	91*	-2%	-1.6	4.7	16	1.0
CC(C)(C)c1nc2ccccc2[nH]1	-4	-6	4%	0.1	0.3	0	0.4
Cc1ccc(C[n+]2cccc(-c3ccccc3)c2)c(C)c1	13	-25	-7%	-1.5	-1.5	0	4.1
CCOc1ccc(C(=O)OCC(=O)Nc2cc(C)on2)cc1OCC	-2	-18	-67%	-1.7	2.5	4	?
COc1ccc(S(=O)(=O)N2CCCCC2)cc1NC(=O)CCNC(=O)c1ccco1	/	/	-2%	/	-0.3	0	/
CCN1CCN(C(=O)N(CC(=O)Nc2ccc(C(N)=O)cc2)S(=O)(=O)c2ccc(C)cc2)CC1	-6	/	-3%	/	0.5	-5	3.8
Nc1c(C(=O)NC23CC4CC(CC(C4)C2)C3)sc2nc3c(c(C(F)(F)F)c12)CCC3	3	-5	7%	13	7.5	-6	-1.0
CCOc1cc(C(=O)O)ccc1OCCOc1ccccc1	2	-2	/	-4.0	4.0	5	-3.5
O=C(O)Cn1cc(F)c(=O)[nH]c1=O	3	-9	/	-2.3	-3.6	/	1.1
Cc1ccc2[nH]c3c(c2c1)CNCC3	11	/	-2%	0.6	-3.6	2	0.6
FC(F)(F)c1ccc(Cl)c(NC(=S)N/N=C/c2ccccc2C(F)(F)F)c1	21	-17	16%	-2.4	0.9	4	-3.4
COc1ccc(CCN2CC(C(=O)N(C)Cc3ccccc3OC)CCC2=O)cc1 (stereo not given)	-13	-18	/	12*	-2.4	-3	-2.6
COc1ccc(C2/C=C\CN(CC(C)C)CC(=O)N2Cc2cccc(F)c2)cc1 (stereo not given)	/	/	-8%	/	3.6	9	/
C[C@@H](C(=O)Nc1ccc(SC(F)F)cc1)N1C(=O)C2CCCCC2C1=O (stereo not given in full)	/	90*	1%	-2.7	-1.1	5	/
COc1ccccc1NC(=O)CCC(=O)OCc1ccc(Br)cc1	25	-3	/	-0.5	1.3	1	-0.6
CCNS(=O)(=O)c1ccc(NC(=O)c2ccccc2)cc1	-3	-13	2%	1.8	-1.8	-1	6.7
CC(=O)Nc1ccc(NC(=O)c2ccccc2CCc2ccccc2)cc1	-8	0	/	2.1	2.2	-2	-5.5
CC1CN(C(=O)COC(=O)Cc2c(Cl)cccc2Cl)CC(C)O1 (stereo not given)	/	-3	-3%	4.6	14	3	/
C=C(C)CN(CC)C(=O)CC1C(=O)NCCN1C (stereo not given)	-12	-4	-1%	-0.3	-1.1	-6	2.4
COCCSc1nnc(NC(=O)COC)s1	1	2	0%	-2.8	0.8	-1	/
COc1ccc(N(C(=O)COc2ccccc2OC)S(=O)(=O)c2ccc(C)cc2)cc1	?	-15	8%	3.1	0.3	-5	1.8
Clc1ccc(-c2ccnc(Oc3ccc4ccccc4c3)n2)cc1	-4	-8	-13%	1.7	1.4	-15	2.1
COc1ccccc1N1CCN(C(=O)c2cn(Cc3ccccc3)nc2-c2cccnc2)CC1	/	13	-2%	1.3	-2.8	-3	/
COc1ccnc(Oc2ccc(F)cc2)c1-c1ncn[nH]1	-4	-4	-8%	-1.4	1.1	-3	5.1
O=C(NCc1ccco1)c1cc2c(s1)CSC2	9	99*	?	-3.1	/	/	4.4
Cc1c(O)ccc(-c2n[nH]c(C(=O)O)c2-c2nc3ccccc3s2)c1O	2	17	22%	4.5	-1.0	-2	11
CC1(C)CC(=O)C/C(=N\NC(=O)C2CC23CCC3)C1 (stereo not given)	34	/	3%	0.4	1.5	0	18*
COC(=O)C1=C(C)Nc2c(c(=O)n(C)c(=O)n2C)C1c1cccc(O)c1 (stereo not given)	5	11	-5%	-1.4	-3.7	0	?
O=S(=O)(c1cnc(Cl)c(Br)c1)N1CCN(c2ncccn2)CC1	1	-3	-3%	3.1	1.3	-5	4.5
COc1ccc(N(CC(=O)NC2CCCC2)C(=O)CS(=O)CC(=O)Nc2ccc3c(c2)OCO3)cc1 (stereo not given)	-9	-3	-12%	3.6	3.7	-6	-1.7
O=c1c2ccccc2c(/C=N/n2cnnc2)c(O)n1-c1ccccc1	?	30	13%	-2.5	-0.1	0	-1.8
CSc1ccc(S(=O)(=O)Nc2ccc(OCC(=O)N3CCOCC3)cc2)cc1	5	-12	/	1.5	-0.6	-4	-0.9
CCC(=O)Nc1cc(C(C)(C)C)ccc1C(C)=O	-1	1	30%	-1.7	2.4	-13	-0.6
CCCN1CCN(CCCNC(=O)Cn2nc(C)n3c(cc4cc(F)ccc43)c2=O)CC1	-2	-2	/	3.0	1.7	-3	2.1
C[C@]12c3[nH]c4ccc(Cl)cc4c3CCN1C(=O)[C@@H](CC(=O)NCC13CC4CC(CC(C4)C1)C3)C[C@@H]2C(=O)N1CCOCC1	/	/	-3%	/	-1.0	8	/
O=C(Nc1ccc2c(c1)CCC2)c1cc(=O)[nH]c2ccccc12	?	-4	-3%	0.1	3.0	1	0.0
O=c1[nH]c(C(F)(F)F)nc2ccccc12	0	-5	-6%	-0.6	-4.3	1	1.5
CCn1cc(/C=C/C(=O)Nc2ccc(C)cc2Br)cn1	-6	-6	/	-6.4	0.4	5	-2.0
CSc1nc2sc3c(c2c(=O)[nH]1)CC(C)(C)OC3	9	7	/	2.0	-1.9	4	-5.3
Cn1c(=O)[nH]c(=O)c2c1nc(N1CCOCC1)n2CCSc1nnnn1-c1ccccc1	-7	-8	24%	3.1	0.8	7	4.4
O=C1N[C@@H](c2ccccc2)COC(=O)[C@H](Cc2ccc(F)cc2)CC/C=C/C[C@@H]1CC(=O)N(CCO)Cc1ccccc1	/	-1	/	-5.3	-3.2	8	/
Cc1ccc(C)n1-c1ccc(N2CCOCC2)c([N+](=O)[O-])c1	-3	/	18%	1.2	-3.3	-2	-0.5
CCc1sc(N(C(=O)Cc2ccccc2)c2ccccc2)nc1-c1ccccc1	-5	1	-5%	5.8	1.0	7	6.0
Cc1cccc2cc(/C=N/NC(=O)c3ccccc3O)c(Cl)nc12	20	2	/	-2.0	-23	4	?
CCCS(=O)(=O)N1CCN(C2Cc3ccccc3C2)CC1	2	-3	3%	1.4	-1.0	7	-0.9
COC(=O)C1=C(C)N(Cc2ccccc2)C(=NCc2cc(OC)c(OC)c(OC)c2)N[C@H]1c1cccc(F)c1	-5	-8	/	0.7	0.8	25	?
COc1ccc(OC)c(N(CC(=O)NCc2ccncc2)S(C)(=O)=O)c1	3	-6	2%	0.2	4.4	-3	0.9
Cc1ccc2nc(N(CCCN(C)C)C(=O)CS(=O)(=O)c3ccccc3)sc2c1	-6	-1	-6%	0.1	-1.6	4	?
Cc1ccc(OCC(=O)N2CCN(C(=O)CCC3CCCC3)CC2)cc1	-4	-2	15%	2.4	4.3	-10	-4.2
CCOc1ccc(NC(=O)N(CCC(C)C)C2CCN(C(C)=O)CC2)cc1	-1	-10	?	-2.0	-4.3	-2	-5.3
COc1ccc2c(c1OC)C(=O)N1N=C(c3ccc(Cl)cc3)CC21 (stereo not given)	-7	0	3%	4.3	-0.2	-9	-3.4
CCOC(=O)C1CCN(S(=O)(=O)c2ccc(OCC(=O)OC)cc2)CC1	-3	1	6%	-11	2.7	2	0.6

# Next compounds follow.
smiles	Calb FLC	ALR H2O2 inh	Vif A3G	LANA-H2A inh	HNF4A DNA FP	Beta2AR agonist	RanGTP-Impb inh
O=C(C1CCC(CNS(=O)(=O)c2cccs2)CC1)N1CCN(c2ccc(Cl)cc2)CC1 (stereo not given)	-13	-3	/	2.2	2.3	7	-0.1
CCc1ccc(NC(=O)c2cnn3ccccc23)cc1	-4	14	-4%	5.3	1.2	-8	2.7
CC1(C)Cc2c(sc(NC(=O)c3ccc(Br)o3)c2C#N)CO1	28	4	-10%	3.7	0.5	-3	3.4
CSc1nc2nc3c(cc2c(=O)n1-c1ccc(C)cc1)COC(C)(C)C3	2	-6	15%	-2.6	1.0	-12	1.9
CCN(CC(=O)Nc1c(F)cccc1F)C(=O)c1ccc(S(=O)(=O)N2CCCC2)cc1	-1	0	2%	4.0	0.6	1	2.9
COc1ccc(NCC(=O)N/N=C/c2c(C)nn(Cc3ccccc3)c2Cl)cc1	-21	/	9%	0.4	-0.1	-12	6.1
CC(=O)c1ccc(N2Cc3ccccc3/C2=N\C(=O)Nc2ccccc2)cc1	-7	-4	-1%	-3.1	3.1	-7	3.0
COc1cc(CN2C(=S)NC(C)(C)CC2(C)O)cc(OC)c1 (stereo not given)	-5	0	1%	-1.1	4.8	-1	-0.7
Brc1ccccc1OCCCCCN1CCOCC1	1	-3	20%	-0.1	-2.2	-2	0.7
O=C(CN1C(=O)c2ccccc2S1(=O)=O)c1ccc(F)c(F)c1	2	3	/	0.0	0.3	4	3.4
CN(C)C(=O)[C@H]1C[C@H]1[C@@H](O)[C@H](CO)NC(=O)[C@H](Cc1ccccc1)NC(=O)OC(C)(C)C	-10	-4	/	8.2	5.2	-2	-0.2
O=C(COC(=O)C(O)c1ccccc1)c1ccc2c(c1)OCCO2 (stereo not given)	9	9	?	6.8	-0.1	-4	0.2
COc1ccccc1N(CC(=O)NCCN1CCOCC1)S(=O)(=O)c1ccccc1	-5	-1	/	-5.3	2.0	0	-0.9
O=C(Nc1ccc2c(c1)S(=O)(=O)N=C1CCCCCN12)c1ccccc1Cl	1	-1	27%	-4.6	0.5	7	4.1
Cc1[nH]n(-c2ccccc2)c(=O)c1C=NC1CCCCC1	-13	2	-5%	-2.8	0.3	1	-1.0
O=C(CCCCn1c(=O)[nH]c2ccccc2c1=O)N1CCN(c2cccc(C(F)(F)F)c2)CC1	17	-3	?	-0.8	-0.3	-1	5.4
CN1CCN(C(=O)c2ccc(COc3ccc(Cl)cc3Cl)cc2)CC1	1	-6	-1%	0.6	-8.5	-6	-2.2
Cc1nc2ccccc2nc(C)c1=NOCC(=O)N(c1ccccc1)C(C)C	1	-25	16%	1.8	2.1	-2	1.8
COC(=O)c1ccccc1S(=O)(=O)Nc1ccc2cn[nH]c2c1	7	22	30%	-0.3	-2.6	0	5.0
Cc1ccccc1NC(=O)c1ccc(Cl)c(NC(=O)c2ccncc2)c1	1	-6	6%	-2.3	3.8	5	-3.0
